Beta cell apopt – blocks beta cell apoptosis; 0.8% of 300,000 active; INS-1E cytokine-induced death, ATP luminescence, 48 h; percent of positive-control rescue, neutral wells zero; AID 435005; protection from apoptosis, % (concentration not given with the values);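 active = all replicates at 75% or more, or half of them and the mean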;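 also: 0% = cytokine-treated negative control wells and 100% = positive control rescue; higher means more ATP so stronger rescue from cytokine killing; wells of about 40 µL received 100 nL stock; the first replicate is given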
MLL AF4-AF9 inh – blocks AF4 peptide binding to human AF9; 0.47% of 350,000 active; AlphaScreen, biotin-AF4 peptide binding to FLAG-AF9; inhibition, % at 10 µM; P42568;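 active = every replicate reaching a set inhibition limit, whatever the replicate mean, cut at about 25% in these data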;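 also: 0% = plate neutral control median and 100% = total signal loss; the record names both 10 and 1 µM as test concentration; the first replicate is given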
A1 inh – inhibitors of the anti-apoptotic protein A1, read as caspase activation. MEF A1-2A-BIM cells, Caspase-Glo 3/7 luminescence, 3 h; percent of clofoctol response, vehicle zero. caspase activation, % (no concentration beside the values). 0.066% of 330,000 active. AID 2462;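 active = over half of replicate activation scores above 10%, or exactly half above 10 with the replicate mean above 10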;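 also: wells of about 30 µL received 50 nL stock; many hits fall short of the cut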
Calb FLC – affects C. albicans growth with fluconazole | C. albicans CaCi-2 (fluconazole-resistant clinical isolate) + fluconazole, Alamar Blue growth, 48 h | growth inhibition, % (test concentration not listed) | 0.57% of 300,000 active;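 active = most replicates above 75%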;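 also: all wells also contain fluconazole at 8 µg/ml as a sub-toxic cotreatment; 0% = median of DMSO wells and 100% = median of geldanamycin control wells; wells of about 8 µL received 7.5 nL stock; the first replicate is given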
T cruzi inh – blocks replication of Trypanosoma cruzi | AID 1885 | 1.4% of 300,000 active | inhibition, % (test concentration not listed) | T. cruzi beta-gal in NIH3T3, luminescence, 90 h;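 active = mean inhibition across valid replicates above about 55%, limit read from the data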;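 also: signal also drops with host cell toxicity which is not excluded here; 0% = plate median of DMSO wells and 100% = zero luminescence signal; higher percent means less beta-gal luminescence so fewer parasites; stock transfer was 50 nL into about 50 µL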
LANA-H2B inh – blocks KSHV LANA binding to histone H2A/H2B; Q9QR71; cell-free LANA-H2A/H2B peptide, fluorescence polarization; inhibition, % (test concentration not listed); 0.6% of 320,000 active; in the data active = inhibition mostly above about 10%, no sharp cut-off; inactive = mostly below about 6.7%;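 also: stock transfer was 7.5 nL into about 10 µL; 0% = median of vehicle wells and 100% = median of positive control wells; one replicate is shown; the record names a cut of 25% in any replicate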
RanGTP-Imp inh – inhibitors of RanGTP-importin-beta interaction, primary screen, biochemical, FRET, CFP-Ran, YFP-importin-beta, homogeneous; inhibition, % (no concentration beside the values); AID 2216; cell-free CFP-Ran/YFP-importin-beta FRET ratio; 1.1% of 300,000 active;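 active = most replicates above 15%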;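 also: 0% = DMSO wells and 100% = Ran loaded with GDP instead of GTP; wells of about 40 µL received 100 nL stock; the first replicate is given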
Vif TR-FRET – HIV-1 Vif–A3G interaction blockers – biochemical, TR-FRET, GST-Vif 1-94, biotin-A3G peptide, dose response retest, primary screen (AID 1117319); TR-FRET GST-Vif / biotin-A3G peptide binding; higher % means a stronger effect; test concentration not given here; strong numbers were not always called active; one-dose inhibition, %; IC50 in µM for titrated hits; 0.57% of 260,000 active;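 active = above the screen mean plus three standard deviations and confirmed in dose response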;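 also: Vif residues 1-94 fused to GST binding biotinylated APOBEC3G peptide 110-148; 0% = full assay without inhibitor and 100% = GST in place of GST-Vif; retest series ran down from 100 µM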
Starred values were filed as active, the others as inactive; . = not tested or not shown. Rows are unselected; about 4.3% have a hit in one of these screens.

Letter code – A = Beta cell apopt; B = MLL AF4-AF9 inh; C = A1 inh; D = Calb FLC; E = T cruzi inh; F = LANA-H2B inh; G = RanGTP-Imp inh; H = Vif TR-FRET
structure: Cc1onc(-c2ccccc2)c1C(=O)N1CCN(S(=O)(=O)c2ccc3c(c2)OCCO3)CC1
  A = -8	B = .	C = 0.0	D = -6	E = -7	F = 1.2	G = 3.0	H = -3%
structure: CCOC(=O)C1(Cc2ccccc2)CCN(Cc2cnn(CC)c2)CC1
  A = 2	B = -5.5	C = -0.7	D = -10	E = 11	F = 4.5	G = -2.1	H = 8%
structure: CC(C(=O)Nc1ccc(Cl)cc1Cl)N1C(=O)NC2(CCCC2)C1=O (stereo not given)
  A = -8	B = -5.4	C = 0.7	D = -5	E = 20	F = -0.5	G = -1.0	H = .
structure: CCNc1nc(Oc2ccc(=O)[nH]n2)nc(SC)n1
  A = -3	B = .	C = 0.0	D = -8	E = -4	F = 2.9	G = -0.3	H = -3%
structure: Cc1noc(C)c1COC(=O)c1cccc(S(=O)(=O)N2CCCCCC2)c1
  A = 6	B = .	C = -0.4	D = .	E = .	F = -3.2	G = .	H = 72%
structure: CCOC(=O)CNC(=O)CN1C(=O)CC(c2ccccc2)S(=O)(=O)c2ccccc21 (stereo not given)
  A = -6	B = -0.1	C = 0.3	D = -4	E = -11	F = -1.1	G = 0.2	H = 1%

Sorted by formula weight (falling): 5 of the compounds above.
Letter code – A = Beta cell apopt; B = MLL AF4-AF9 inh; C = A1 inh; D = Calb FLC; E = T cruzi inh; F = LANA-H2B inh; G = RanGTP-Imp inh; H = Vif TR-FRET
structure: Cc1onc(-c2ccccc2)c1C(=O)N1CCN(S(=O)(=O)c2ccc3c(c2)OCCO3)CC1
  A = -8	B = .	C = 0.0	D = -6	E = -7	F = 1.2	G = 3.0	H = -3%
structure: Cc1noc(C)c1COC(=O)c1cccc(S(=O)(=O)N2CCCCCC2)c1
  A = 6	B = .	C = -0.4	D = .	E = .	F = -3.2	G = .	H = 72%
structure: CC(C(=O)Nc1ccc(Cl)cc1Cl)N1C(=O)NC2(CCCC2)C1=O (stereo not given)
  A = -8	B = -5.4	C = 0.7	D = -5	E = 20	F = -0.5	G = -1.0	H = .
structure: CCOC(=O)C1(Cc2ccccc2)CCN(Cc2cnn(CC)c2)CC1
  A = 2	B = -5.5	C = -0.7	D = -10	E = 11	F = 4.5	G = -2.1	H = 8%
structure: CCNc1nc(Oc2ccc(=O)[nH]n2)nc(SC)n1
  A = -3	B = .	C = 0.0	D = -8	E = -4	F = 2.9	G = -0.3	H = -3%

High-throughput results deposited in PubChem by several laboratories.
